From PubChem
STK33 kinase inh: inhibitors of human STK33 kinase. Q9BYT3. purified STK33, MBP phosphorylation, ADP-Glo luminescence. inhibition, % at 10 µM. 320,000 compounds, 0.073% hits. AID 2661;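 active means inhibition at or above 25%, using the most active replicate where run in duplicate; inactive means inhibition below 25%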
Target sequence (Q9BYT3 whole entry, looked up): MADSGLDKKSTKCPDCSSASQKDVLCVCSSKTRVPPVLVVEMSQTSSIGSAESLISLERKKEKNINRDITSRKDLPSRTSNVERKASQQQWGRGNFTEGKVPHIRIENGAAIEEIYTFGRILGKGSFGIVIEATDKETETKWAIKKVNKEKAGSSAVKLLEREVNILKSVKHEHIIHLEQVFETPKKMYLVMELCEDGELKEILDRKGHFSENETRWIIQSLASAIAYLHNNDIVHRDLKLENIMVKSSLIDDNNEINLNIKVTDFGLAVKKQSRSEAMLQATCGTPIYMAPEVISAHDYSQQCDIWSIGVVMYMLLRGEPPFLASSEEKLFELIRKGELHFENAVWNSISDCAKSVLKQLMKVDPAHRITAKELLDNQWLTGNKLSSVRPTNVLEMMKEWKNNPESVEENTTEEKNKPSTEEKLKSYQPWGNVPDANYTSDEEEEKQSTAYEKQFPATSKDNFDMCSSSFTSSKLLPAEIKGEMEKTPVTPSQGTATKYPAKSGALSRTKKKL
Active calls of the source: *. The list is partial; most or all hits stand in other tables.

SMILES	STK33 kinase inh
C=CCc1cccc(CNc2ccc(Br)cc2)c1O	-0.6
Cn1c(NC(=O)c2ccc(Br)o2)cc(=O)n(C)c1=O	-1.2
CCCCOn1c(C)c(C(=O)OCC)c2c3nonc3ccc21	2.7
CCOc1ccc2[nH]c(=O)c(CN(CCc3ccccc3)C(=O)c3cnccn3)cc2c1	-0.2
Cc1cc(=O)[nH]c(NCc2ccc(Cl)cc2)n1	0.8
O=C(Nc1ccnn1C1CCN(CCCC2CCCC2)CC1)c1ccccc1	-2.0
COCc1cc(C)n(CC(=O)Nc2cc(C)cc(C)c2)c(=O)c1C#N	-0.1
COc1ccc(C2(C)NC(=O)N(CC(=O)NC3CC3)C2=O)cc1 (stereo not drawn)	-0.6
Cc1ccc(OCC(=O)NCCNC(=O)c2ccco2)cc1	-0.3
Cc1nc(NC(=O)CCl)sc1C(=O)N(C)C	-1.1
Cc1cccc(N2CCN(S(=O)(=O)c3ccc(Cl)nc3)CC2C)c1 (stereo not drawn)	-2.3
O=C(Cc1ccccc1)N/N=C/c1ccc(OC(=O)/C=C\c2ccco2)cc1	-0.7
CC(=O)NCC(=O)NC1CC(C)(C)Cc2c1cnn2-c1ccccc1 (stereo not drawn)	0.3
O=C(O)C(O)(c1ccccc1)C(O)c1ccccc1 (stereo not drawn)	-0.7
COc1cccc(CN2CCN(Cc3ccc4cccc(F)c4n3)CC2CCO)c1 (stereo not drawn)	-1.6
O=C(CSc1nnc(CNc2ccc(F)cc2)o1)OC1CCCCC1	-2.1
COc1ccccc1C(=O)NC(CCSC)C(=O)NNC(=O)c1ccccc1C (stereo not drawn)	-0.7
O=C(NC1CCCCC1)N(CCO)Cc1cc2cc3c(cc2[nH]c1=O)OCCO3	-2.6
O=C(Nc1nc2ccccc2c(=O)[nH]1)c1ccccc1SCc1ccccc1	-1.3
CCCn1c(SCN2C(=O)c3ccccc3C2=O)nc2cc(Cl)ccc2c1=O	-1.6
O=C(Nc1c(C(=O)Nc2cccc3ccccc23)cnn1-c1ccccc1)c1ccco1	-1.6
CN(C)CCCN=Cc1c(O)n(Cc2ccccc2)c(=O)c2ccccc12	0.0
COC(=O)C(CC(C)C)NC(=O)c1cccs1 (stereo not drawn)	-0.1
COc1cc(CCCN2C(=O)C(=O)NC[C@@H]2C(C)O)cc(OC)c1OC (stereo partly drawn)	-1.0

An excerpt from above in order of count of non-hydrogen atoms, falling.
SMILES	STK33 kinase inh
CCOc1ccc2[nH]c(=O)c(CN(CCc3ccccc3)C(=O)c3cnccn3)cc2c1	-0.2
COc1cccc(CN2CCN(Cc3ccc4cccc(F)c4n3)CC2CCO)c1 (stereo not drawn)	-1.6
COc1ccccc1C(=O)NC(CCSC)C(=O)NNC(=O)c1ccccc1C (stereo not drawn)	-0.7
CCCn1c(SCN2C(=O)c3ccccc3C2=O)nc2cc(Cl)ccc2c1=O	-1.6
CN(C)CCCN=Cc1c(O)n(Cc2ccccc2)c(=O)c2ccccc12	0.0
COc1cc(CCCN2C(=O)C(=O)NC[C@@H]2C(C)O)cc(OC)c1OC (stereo partly drawn)	-1.0
O=C(CSc1nnc(CNc2ccc(F)cc2)o1)OC1CCCCC1	-2.1
Cc1cccc(N2CCN(S(=O)(=O)c3ccc(Cl)nc3)CC2C)c1 (stereo not drawn)	-2.3
CCCCOn1c(C)c(C(=O)OCC)c2c3nonc3ccc21	2.7
Cc1ccc(OCC(=O)NCCNC(=O)c2ccco2)cc1	-0.3
Cn1c(NC(=O)c2ccc(Br)o2)cc(=O)n(C)c1=O	-1.2
Cc1cc(=O)[nH]c(NCc2ccc(Cl)cc2)n1	0.8
Cc1nc(NC(=O)CCl)sc1C(=O)N(C)C	-1.1

Remaining list, next part:
SMILES	STK33 kinase inh
Cc1ccc(C)c(N2CCN(C(=O)CCCCCn3c(=S)[nH]c4ccc(N5CCOCC5)cc4c3=O)CC2)c1	0.6
O=C(CN(C(=O)C1CSC(=O)C1)c1ccc(F)cc1)NCc1ccc2c(c1)OCO2 (stereo not drawn)	-0.7
CC(=O)c1ccc(NCC(=O)N2CCN(c3ccccc3)CC2)cc1	-0.7
CCCC(=O)N1CCN(c2ccc(NC(=O)c3ccc4c(c3)OCCO4)cc2)CC1	-1.7
CCC(C(=O)O)n1nc(-c2ccccc2)c2cc(Cl)ccc21 (stereo not drawn)	-2.5
COc1ccc(S(=O)(=O)Nc2ccc3c(c2)C(=O)N([C@H](C)CO)C[C@@H](C)[C@@H](CN(C)S(=O)(=O)c2ccc(Cl)cc2)O3)cc1	-0.6
O=C(COc1ccc(/C=N/NS(=O)(=O)c2ccccc2)cc1)Nc1ccc(F)cc1	-0.4
C=CCn1c(CCSCc2ccc(OC)c(C)c2)n[nH]c1=S	-1.6
COc1ccc(OC)c2sc(NC(=O)CCS(=O)(=O)c3ccccc3)nc12	-2.7
Cc1nc(NC(=O)CSc2nnc3ccccn23)c(Cl)cc1Cl	-1.4
COc1ccc(Cl)cc1S(=O)(=O)N1CCCC(C(=O)NCC(N)=O)C1 (stereo not drawn)	-0.5
Nc1nccc(/C=C/c2c(Cl)cccc2Cl)n1	-0.4
COC(=O)C(NC(=O)c1ccccc1)=C1CCCCC1	-1.2
CC(=O)c1cccc(NC(=O)COC(=O)CCc2ccc(S(=O)(=O)N3CCOCC3)cc2)c1	1.5
CCC(=O)Nc1ccc(C(=O)CSc2nnc(CNc3ccc(Cl)cc3)o2)cc1OC	-1.0
O=C(c1cc(COc2ccc3ncccc3c2)on1)N1CCCCCC1	-0.1
Cc1cc2oc(=O)cc(CSc3nc(N)cc(N)n3)c2cc1C(C)C	0.6
O=C(NC(=S)NCc1ccccc1)C1CCCCC1	0.1
CCCNC(=O)Nc1nccs1	1.1
Cc1sc(NC(=O)CCCCC(=O)Nc2sc(C)c(C)c2C(=O)O)c(C(=O)O)c1C	-1.1
O=C(CSCc1ccc(Cl)cc1)NCc1ccc2c(c1)OCO2	-2.2
CC(=O)c1cc(C#N)c(N2CCCCC2)nc1C	-1.4
CN1CCN(C(=O)CN(c2ccccc2)S(=O)(=O)N(C)C)CC1	-0.6
Cc1cc(C)nc(OC(C(=O)O)C(OCCC(C)C)(c2ccccc2)c2ccccc2)n1 (stereo not drawn)	-2.8
COc1ccc(NC(=O)CCN2CCCC2)c(OC)c1	1.8
CCCCn1c(N)c(N(CCOC)C(=O)c2cccc(S(=O)(=O)N3CCCCC3)c2)c(=O)[nH]c1=O	-2.1
O=C(NCCOc1cccc2cccnc12)c1cccs1	-0.4
COC(=O)c1cccc(Nc2ncnc3sccc23)c1	-1.3
O=C(/C=C\c1ccccc1)Nc1ccc(NC(=O)c2ccco2)cc1	-0.7
CS(=O)(=O)N(CC(=O)NC1CCCCC1)Cc1ccc(Cl)cc1	-0.2
CC(NC(=O)Cc1cccs1)C(c1cccs1)N1CCOCC1 (stereo not drawn)	-0.4
Cc1cccc(C)c1OCc1cc(C(=O)NCc2cn(C)nc2C)no1	0.8
Cc1ccc(CCNC(=O)c2nn(C)c3c2CS(=O)(=O)c2ccccc2-3)cc1	-2.1
COc1ccc(-n2nc(C(=O)Nc3nc4ccc(OC)cc4s3)c3ccccc3c2=O)cc1	-1.6
COc1cccc(CC(=O)Nn2c(C)nc3ccccc3c2=O)c1	-1.6
O=C(c1ccc(COc2ccc(F)cc2)o1)n1cc(Br)cn1	0.5
Cc1ccc(/C=C/C(=O)N2CCN(c3ncccn3)CC2)o1	-0.7
O=C(COc1ccc2c(c1)OCO2)NC12CC3CC(CC(C3)C1)C2	-0.1
O=C(c1cc(=O)[nH]c2ccccc12)N1CCN(S(=O)(=O)c2ccc3ccccc3c2)CC1	0.0
COc1cc(-c2nc(CN3CCN(C(=O)c4ccco4)CC3)c(C)o2)ccc1F	-1.0
CCN(Cc1ccccc1)C(c1ccncc1)c1nnnn1C(C)(C)C (stereo not drawn)	0.3
Cc1cc(C)c(S(=O)(=O)NC2CC2)c(C)c1	-0.6
CCOC(=O)c1cc(-c2ccc(OC)cc2)nc2c1c(C)nn2CCC(N)=S	-2.8
O=C(COC(=O)CNC(=O)c1cccc([N+](=O)[O-])c1)Nc1cccc(S(=O)(=O)N2CCCC2)c1	0.6
Cc1nc2ccccn2c1C(=O)/C=C/c1cccc([N+](=O)[O-])c1	1.5
Cc1ccc(/C=C(\NC(=O)c2ccccc2)C(=O)NCC2CCCO2)o1 (stereo not drawn)	0.4
CC(=O)N(C)c1ccc(OCC(O)CN(c2ccccc2C)S(=O)(=O)c2ccc(C)cc2)cc1 (stereo not drawn)	-2.1
CC1(C)CC(=O)C2=C(C1)NC(=O)NC2c1ccccc1Cl (stereo not drawn)	-2.5
Cc1ccnc(SCC(=O)Nc2sccc2C#N)n1	0.3
S=C(NCc1ccccc1)NCc1ccccc1	-0.9
COc1cc([N+](=O)[O-])ccc1NC(=S)NCc1ccccn1	0.3
CC12C=CC(=O)C=C1CCC1C3CCC(O)(C(=O)CO)C3(C)CC3OC312 (stereo not drawn)	-1.2
Cc1cc(C)c([N+](=O)[O-])cc1-c1ccc(/C=N/NC(=O)c2nonc2N)o1	1.9
O=C(CCC1CCCN(C(=O)CCC(F)(F)F)C1)NCc1ccc(F)c(F)c1 (stereo not drawn)	-0.9
COc1ccc(-c2ccc(SCC(=O)NC3CCCC3)nn2)cc1OC	-1.2
COc1cccc2sc(NNC(=O)c3nc4ccccc4s3)nc12	1.1
Cc1cccc(-n2c(C)cc(C(=S)N3CCOCC3)c2C)c1C	-1.3
COc1ccccc1N1CCN(C(=O)CSc2nc(C)cc(=O)[nH]2)CC1	-0.6
O=C(NC1CCCCC1)C(c1ccncc1)N(C(=O)c1ccco1)c1ccc(F)cc1 (stereo not drawn)	0.1
COc1ccc(C2CCCN2C(=O)Nc2ccccc2)cc1OC (stereo not drawn)	-0.3

(list continues)
SMILES	STK33 kinase inh
COc1ccc(N2CCN(Cc3nc4scc(-c5ccccc5)c4c(=O)[nH]3)CC2)cc1	-0.8
COc1cccc(O)c1CN1CCC(n2nccc2NC(=O)c2ccc3c(c2)OCO3)CC1	-0.3
O=C(NCCN1CCCC1)c1ccc2c(=O)n(CCc3ccccc3)c(=O)[nH]c2c1	-0.5
CCOC(=O)c1sc(NC(=O)Cn2nnc3sc4c(c3c2=O)CCCC4)nc1C	-2.3
O=C(NC1CCCCCC1)C1CCN(S(=O)(=O)c2c(Cl)cccc2Cl)CC1	-0.4
C=C(C)CC1N(c2cccc(OC)c2)C(=O)C2C(C(=O)O)C3C=CC21O3 (stereo not drawn)	-1.4
COc1ccc(NC(=O)CN(C)C(=O)CN2C(=O)C3CCCCC3C2=O)cc1 (stereo not drawn)	-0.8
COc1ccccc1NC(=O)c1ccccc1NC(=O)c1ccccc1C(=O)O	2.0
Cc1cc(C)nc(NNC2=CC(=[N+]3CCCC3)CCC2)n1	10
CCCn1c(SCC(=O)c2[nH]c(C)c(C(C)=O)c2C)n[nH]c1=O	2.8
O=C(Nc1ccccc1Cl)O/N=C(/c1ccccc1)c1ccccn1	-1.0
CN(Cc1c(F)cccc1Cl)C(=O)c1ccc2ccccc2n1	-1.4
Cc1cccc(C(=O)Nc2cccc(NC(=O)c3ccccc3)c2)c1	-1.5
Cc1ccc(NC(=O)/C(C#N)=C/c2cc(C)n(-c3ccc(N4CCOCC4)c([N+](=O)[O-])c3)c2C)c(C)c1	-0.3
COc1ccc(CN(CC2CCC(C(=O)O)CC2)C(=S)Nc2ccc(C)c(Cl)c2)cc1 (stereo not drawn)	-3.7
CCN/N=C(\Cc1nc2ccccc2[nH]1)c1ccccc1	0.3
Cc1ccc(C)c(S(=O)(=O)N2CCN(C(=O)C(C)Sc3ccccc3)CC2)c1 (stereo not drawn)	-2.2
COc1ccc(/C=N/NC(=O)CSCc2ccc([N+](=O)[O-])cc2)cc1OC	-1.4
Cc1cc(NC(=O)C(C)C)ncc1NC(=O)c1ccccn1	2.1
COc1ccc(S(=O)(=O)Nc2cc3c4c(oc3c3ccccc23)CCCC4=O)cc1	-3.2
COc1ccc(Oc2nccc(-c3ccc(Cl)cc3)n2)cc1	-3.9
COc1ccc2[nH]c(=O)c(NC(N)=S)nc2c1	0.1
O=C(CN1CCOCC1)NN=C1CCCCCCCCCCC1	-0.8
Cc1ccsc1C(=O)OCc1nnc(-c2ccccc2)o1	-1.4
CC1Oc2ccccc2N(CC(=O)NCCCN2CCOCC2)C1=O (stereo not drawn)	0.6
CCOc1ccc(CCNC(=O)C2CCN(c3nn4c(=O)cc(C)nc4s3)CC2)cc1OCC	-1.2
CCN(C1CCCCC1)S(=O)(=O)CCNC(=O)c1ccc2c(c1)OCO2	-3.0
O=C1CCCC2=C1C1c3ccccc3C(=O)N1c1ccc(C(=O)c3ccccc3)cc1N2 (stereo not drawn)	-0.8
CCN(C(=O)CSc1nc(C)nc2sc(C)c(C)c12)C1CCS(=O)(=O)C1 (stereo not drawn)	-0.7
CCC(C)Sc1cc(C(F)(F)F)c(C(=O)Nc2ccc(Cl)cc2)cn1 (stereo not drawn)	-1.1
Cc1cc(-c2ccc(C)c(S(=O)(=O)N3CC(=O)Nc4ccccc43)c2)on1	-0.1
O=C1c2ccccc2C(=O)N1c1ccc(S(=O)(=O)N2CCCCC2)cc1	1.4
Cc1ccc(N2C(=O)CC(NNc3nc4ccccc4s3)C2=O)cc1C (stereo not drawn)	-0.2
Cc1cccc(OCCC(=O)Nc2ccc(Cl)cc2F)c1	0.3
Cc1c(C(=O)Nc2cccnc2Cl)oc2ccccc12	-1.6
CC[C@]1(c2ccccc2OC)C(=O)N(C(=O)OC)N1C(=O)OC	1.2
NC(=O)c1ccccc1	-1.0
COc1cccc(CNC(=O)C(=O)NCC2CCCO2)c1 (stereo not drawn)	0.0
CCOc1ccc(/C=N/NC(=O)c2cc(-c3cccn3C)n[nH]2)cc1	-1.2
Cc1cc(OC(=O)c2ccc(S(=O)(=O)N3CCCCC3)cc2)c([N+](=O)[O-])c(=O)[nH]1	0.0
